High-throughput results as filed in PubChem BioAssay.
NPYLR7 ag: mosquito NPYLR7 agonism | activation, % at 10 µM | HEK293T NPYLR7/Galpha15, GCaMP6s calcium fluorescence | hit rate 0.15% among 270,000 | AID 1259423; in the data active = activation above about 40%;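 note: 0% = vehicle and 100% = reference agonist at the receptor; some compounds past the cut are filed as inactive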
NPYLR7 ag max-min: second read-out of NPYLR7 ag, no call of its own (marks repeat the call); activation, %; measured here: Max-Min RFU normalised activation; some inactives read as strong as hits;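 span of the calcium signal over five minutes; 0% = vehicle and 100% = native peptide agonist; compound fluorescence can raise it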
* hit, by the source's call. A portion of the library. The share of hits here may be higher or lower than overall.

SMILES	NPYLR7 ag	NPYLR7 ag max-min
COc1ccccc1OCCN1CCC(C(=O)NC(c2ccc(F)cc2)c2ncccc2C)CC1 (centres undefined)	4	6
CC(N=C1NS(=O)(=O)c2ccccc21)C(=O)OC1CCOC1=O (centres undefined)	2	-5
COc1cccc(NC(=O)C(=O)NCCCN(C)C)c1	31	25
CCn1cc(NC(=O)NCCc2ccccc2)c2ccccc21	-5	-4
CC(OC(=O)C12CC3CC(CC(O)(C3)C1)C2)C(N)=O (centres undefined)	1	-1
CCCCN(CC(=O)N(Cc1ccccc1)Cc1cccs1)S(=O)(=O)c1ccc(Cl)c([N+](=O)[O-])c1	35	33
CSc1nnc(-c2ccccc2)c(-c2ccccc2)n1	7	0
CCn1c(C2CCN(C(=O)c3nc4c(C)cccn4c3F)CC2)n[nH]c1=O	3	2
Cc1ccc(Cl)c2sc(N(Cc3ccccn3)C(=O)Cc3ccc(S(C)(=O)=O)cc3)nc12	2	2
CC(C)(C)c1ccc(C(=O)Nc2ccc(NC(=O)c3cc4ccccc4oc3=O)cc2)cc1	-7	-10
CN(Cc1cccnc1)C(=O)c1ccc(CSc2ncccn2)o1	-8	-12
CCc1c(C#N)c(N)nc(SCC(=O)c2ccccc2)c1C#N	-3	-7
O=C(NCc1ccccc1)c1cc(C2COCCN2C(=O)c2ccccc2)on1 (centres undefined)	15	7
CN=c1scc(-c2ccc(F)cc2)n1N=Cc1cccc(C(F)(F)F)c1	7	2
CCNC(=S)N(CCN(C)C)Cc1c(-c2ccccc2)noc1N1CCCC1	6	5
CC(C)c1ccc(NC(=O)CCN2CCN(CC3CCCO3)CC2)cc1 (centres undefined)	-2	-3
O=C(CON=C1c2ccccc2-c2ccccc21)NCC12CC3CC(CC(C3)C1)C2	1	-2
N#CC1C(=N)SC(=N)C(C#N)C1c1ccc2c(c1)OCO2 (centres undefined)	25	18
Cc1ccc(CN2CCC2(C)C(=O)NCc2ccccn2)cc1 (centres undefined)	2	0
CC(NC(=O)C1CCN(S(=O)(=O)c2cccc(C(F)(F)F)c2)CC1)c1ccccn1 (centres undefined)	-1	1
O=C(NC1CC1)C1CCCN(C2CCN(c3cc(C4CC4)ncn3)CC2)C1 (centres undefined)	25	18
Oc1ccc(-c2ccc(Cn3ccnc3)cc2)cc1	1	-3
COc1ccc(CN2C(=O)O[C@@H]3CN(C(=O)c4ccc[nH]4)C[C@@H]32)cc1OC	2	2
O=S(=O)(NCC1(N2CCOCC2)CCCCC1)c1ccc2c(c1)OCCO2	-2	12
C=c1nc(C)c(-c2nnco2)cc1=C1NN=CO1	9	5
COC(=O)Cn1c(=NC(=O)c2nc3ccccc3s2)sc2cc(S(N)(=O)=O)ccc21	3	1
COc1ccc(OC)c(S(=O)(=O)N2CCC(Cc3ccc(-c4ccccc4)cc3)CC2)c1	3	1
c1ccc(-n2nc(SCC3COc4ccccc4O3)nc2C2CC2)cc1 (centres undefined)	1	7
O=C1NCCc2c1sc1ccc(C(=O)N3CC[C@H](CO)[C@H](O)C3)cc21	2	18
O=S(=O)(c1ccc(Br)s1)N1CCCC1c1ccc2c(c1)OCCO2 (centres undefined)	4	3
Clc1n[nH]c(C2CCCO2)n1 (centres undefined)	-4	-8
CCc1ocnc1C(=O)N1CCC(N2CCCC(C(=O)N3CCCC3)C2)CC1 (centres undefined)	-6	-7
O=C1NCCN1S(=O)(=O)c1ccc(Cl)cc1	-5	-5
CCC(C)C(NC(=O)OC(C)(C)C)C(=O)NCc1ccco1 (centres undefined)	-4	-6
CC(C)(C)c1ccc(CC(=O)N2CCC2(C)C(=O)Nc2ccc3[nH]ncc3c2)cc1 (centres undefined)	6	2
CCC(=O)N1CCC1(C)C(=O)Nc1ccc(OC)c(OC)c1 (centres undefined)	6	1
CCCc1ccc(S(=O)(=O)N2CCN(c3ncccn3)CC2)cc1	13	9
O=C(NCCn1ncc2c(=O)n(Cc3ccccc3)cnc21)c1ccc(C(F)(F)F)cc1	-4	-9
CCC(C(=O)NCc1ccco1)n1c(=O)n(-c2cccc(C(F)(F)F)c2)c(=O)c2ccccc21 (centres undefined)	5	9
O=C(Nc1cccc(NS(=O)(=O)c2cccc3nsnc23)c1)C1CC1	7	4
COc1ccccc1N(CCC(N)=O)C(=O)C(c1ccc(Cl)cc1)C(C)C (centres undefined)	13	10
COc1cc(C)ccc1N(CCCN1C(=O)c2cccc3cccc(c23)C1=O)C(=O)c1cc(C)cc(C)c1	-3	-5
O=C(CN(CCCN1CCOCC1)S(=O)(=O)c1ccc(Br)cc1)N(Cc1ccc2c(c1)OCO2)Cc1ccco1	-9	-13
O=C(NCc1cccnc1)Nc1ccc(F)cc1F	5	-2
COC(=O)c1sccc1NC(=O)CSc1ccc([N+](=O)[O-])cc1	-1	-3
COc1ccc(F)c(-c2cc(NCCO)nc(N)n2)c1	12	8
CC1(C(=O)NS(=O)(=O)c2ccc(Cl)s2)CCN1C(=O)Cc1cc(F)ccc1F (centres undefined)	7	2
COc1ccc(-c2[nH]c3ccc(F)cc3c2CCC(=O)N2CCOCC2)cc1	10	3
Cc1nc(CN(C)C(=O)C2CCC(=O)N(CCCc3ccccc3)C2)cs1 (centres undefined)	3	1
CC1=C(C(=O)OC(C)C(C)(C)C)C(c2ccc(Cl)cc2)NC(=O)N1 (centres undefined)	-3	-7
CCc1cc(N2CCN(Cc3ccccc3)CC2)nc(SCc2cccc(C(=O)Nc3ccc(F)cc3)c2)n1	3	9
Cc1cn(CC(=O)N2CCCC(Nc3ccc(C(C)C)cc3)C2)c(=O)[nH]c1=O (centres undefined)	3	1
COc1cc(C(=O)N2CCC(c3n[nH]c(=O)n3-c3ccccc3)CC2)ccn1	1	-1
Cc1noc(C)c1C(=O)NCc1cccnc1N(C)Cc1ccccc1	-10	-9
C=CCn1nnc(NC(=O)c2cc3ccccc3c(Br)c2OC)n1	-1	-2
COCCN1N=C(c2ccc(F)cc2)Cn2c1nc1c2c(=O)n(CCOC)c(=O)n1C	8	11
CCCN(Cc1ncccc1C(=O)O)Cc1nccn1C	26	25
CC(=Nc1ccccc1N)c1c(C)cc(=O)n(O)c1O	3	-3
CC(C)(C)c1nnnn1Cc1nn(-c2ccccc2)c2c1CCC2	-2	-2
CC(C)c1noc(CCNC(=O)C2(c3ccccc3F)CC2)n1	-2	-4

In the list so far, these have an aryl thioether with sulfur outside any ring.
SMILES	NPYLR7 ag	NPYLR7 ag max-min
CSc1nnc(-c2ccccc2)c(-c2ccccc2)n1	7	0
CN(Cc1cccnc1)C(=O)c1ccc(CSc2ncccn2)o1	-8	-12
CCc1c(C#N)c(N)nc(SCC(=O)c2ccccc2)c1C#N	-3	-7
c1ccc(-n2nc(SCC3COc4ccccc4O3)nc2C2CC2)cc1 (centres undefined)	1	7
COC(=O)c1sccc1NC(=O)CSc1ccc([N+](=O)[O-])cc1	-1	-3
CCc1cc(N2CCN(Cc3ccccc3)CC2)nc(SCc2cccc(C(=O)Nc3ccc(F)cc3)c2)n1	3	9

Carrying on.
SMILES	NPYLR7 ag	NPYLR7 ag max-min
C=CCN(Cc1cccs1)C(=O)Cn1cnc2sc(C)c(C)c2c1=O	-8	-3
Cc1ccc(-c2cnc(C3CCCCN3C(=O)C3CCCO3)[nH]2)cc1 (centres undefined)	2	1
COc1ccc(C(=O)N(C)C(C)c2sc(C)nc2C)c(OC)c1 (centres undefined)	15	11
N#Cc1c(=O)c2nc(N3CCOCC3)ncc2n2c(=O)c3ccccc3[nH]c12	5	36
C1CCN([C@H]2COC[C@@H]2NC2CCC3(CCNCC3)CC2)CC1	1	-2
CS(=O)(=O)C1CSCCN1C(=O)c1cccc(Cl)c1 (centres undefined)	6	4
CC(C)CCn1c(O)c(N=Nc2nc3ccccc3s2)c2ccccc21	14	6
Cc1ccc(C)c(C(=O)NC(CN2CCCC2=O)c2ccccc2)c1 (centres undefined)	4	2
Cc1ccc(OC(C)C(=O)N2CCc3c(sc4ncnc(N)c34)C2)cc1 (centres undefined)	0	4
C=CCOC(=O)C1=C(C)N(C)C(=O)NC1c1ccc(Cl)cc1 (centres undefined)	1	-5
CN(Cc1sc2ccccc2c1Cl)c1ncnc2c1CCNC2	3	1
COc1cccc(NC(=S)N2CC(=O)N3CCc4c(F)cccc4C3C2)c1 (centres undefined)	2	5

Reformatted with each value named: 2 of the compounds above.
> Cc1ccc(OC(C)C(=O)N2CCc3c(sc4ncnc(N)c34)C2)cc1 (centres undefined)
  NPYLR7 ag: 0
  NPYLR7 ag max-min: 4

> COc1cccc(NC(=S)N2CC(=O)N3CCc4c(F)cccc4C3C2)c1 (centres undefined)
  NPYLR7 ag: 2
  NPYLR7 ag max-min: 5

Further structures.
SMILES	NPYLR7 ag	NPYLR7 ag max-min
COc1cccc(C(C2Sc3ncnn3C2=O)N2CCN(CCO)CC2)c1 (centres undefined)	1	-2
Cc1cccc(CS(=O)Cc2csc(C3CCCC3)n2)c1 (centres undefined)	-1	-4
C=CCn1nnc(NC(=O)C(C)(C)Oc2ccc(Cl)cc2)n1	0	-2
CCc1cnc2c(c1SCC(=O)Nc1cccc3ccccc13)c(=O)n(C)c(=O)n2C	4	11
CCNC(=O)NC(Cc1ccccc1)C(=O)Nc1nnc(-c2cccc(Cl)c2)s1 (centres undefined)	-11	-6
CN1CC2(CCCN(C(=O)c3cc(=O)[nH]c4ccc(F)cc34)CC2)OC1=O (centres undefined)	14	7
CNc1nc2cnc(Nc3ccc(C(=O)N(C)C)cc3)cc2n1-c1ccccc1	11	0
O=C(NC1CCN(C2CC2)CC1)c1cccc(S(=O)(=O)Nc2cccc(Cl)c2)c1	-3	-4
CCC1=NOC(CN2CCC(O)(c3ccc(C)cn3)CC2)C1 (centres undefined)	4	0
COc1c(Cl)cc(C(=O)NCC(c2cccc(F)c2)N(C)C)cc1Cl (centres undefined)	3	0
COc1ccccc1NC(=O)N1CCCC1c1ccc2c(c1)OCCCO2 (centres undefined)	7	4
O=C(CCc1ccco1)NC1CCCN(c2ccccc2)C1=O (centres undefined)	2	1
COc1ccccc1-c1nn(-c2ccccc2C)c(OC(C)=O)c1-c1ccc(NC(=O)c2ccc(C(F)(F)F)cc2)cc1	-12	2
C=CCc1ccc(OCCCCn2cnc3ccccc32)c(OC)c1	-7	11
CC1(C(=O)NCc2ccc(C(F)(F)F)cc2)CCN1CCc1ccccc1 (centres undefined)	9	1
COC1CCCC(OC(=O)CC2CC3CCC2C3)C1 (centres undefined)	-2	-5
Cc1oc2c3c(ccc2c(=O)c1-c1ccc2c(c1)OCO2)OCCO3	-5	-8
CCCc1cc2c(=O)c(-c3ccc4c(c3)OCCCO4)coc2cc1OC	-2	-7
COc1ccc(NC(=O)CN2CCC3CCCCC3C2)cc1Cl (centres undefined)	7	4
Cc1cccc2nc(Cn3ccnc3S(C)(=O)=O)cn12	1	-1
O=C(NCCCn1c(=O)[nH]c2ccccc21)Nc1cccc(F)c1	24	11
CN(C(=O)c1ccc2[nH]c(=O)c(=O)[nH]c2c1)C1CCCCCC1	9	-1
Cc1cc(=O)[nH]c(-n2nc(C)c(CCC(=O)Nc3nc(C)cs3)c2C)n1	1	1
CCOc1ccc(-n2c(SCc3ccccc3)nc3c(c2=O)SCC3)cc1	-1	51

Record cards, from the list above.
COC1CCCC(OC(=O)CC2CC3CCC2C3)C1 (centres undefined) as listed: NPYLR7 ag: -2; NPYLR7 ag max-min: -5
CCCc1cc2c(=O)c(-c3ccc4c(c3)OCCCO4)coc2cc1OC as listed: NPYLR7 ag: -2; NPYLR7 ag max-min: -7
C=CCc1ccc(OCCCCn2cnc3ccccc32)c(OC)c1 as listed: NPYLR7 ag: -7; NPYLR7 ag max-min: 11

Four successive entries out of the list so far, quoted:
SMILES	NPYLR7 ag	NPYLR7 ag max-min
O=C(NCCCn1c(=O)[nH]c2ccccc21)Nc1cccc(F)c1	24	11
CN(C(=O)c1ccc2[nH]c(=O)c(=O)[nH]c2c1)C1CCCCCC1	9	-1
Cc1cc(=O)[nH]c(-n2nc(C)c(CCC(=O)Nc3nc(C)cs3)c2C)n1	1	1
CCOc1ccc(-n2c(SCc3ccccc3)nc3c(c2=O)SCC3)cc1	-1	51

The list goes on.
SMILES	NPYLR7 ag	NPYLR7 ag max-min
Cc1cc2nc(Nc3nc4ccccc4c(=O)[nH]3)nc(C)c2cc1C	0	-3
COCCN(CC(=O)N(CCc1ccccc1)Cc1ccc(C)o1)Cc1ccc(C(F)(F)F)cc1	3	9
Cc1nn(C)c(C)c1CN(C(=O)CCN(C)S(C)(=O)=O)C(C)C	-6	-2
CCc1nn(-c2ccccc2)c(NC(=O)CC2C=CS(=O)(=O)C2)c1C (centres undefined)	10	0
CC(=O)Cn1c(=O)c2c(nc3n2CC(C)CN3c2ccc(Br)cc2)n(C)c1=O (centres undefined)	10	0
Cc1cccn2cc(C(=O)NC[C@@H]3CCNC[C@H]3O)nc12	-2	-11
Clc1ccc(CCN2COc3cc4c(cc3C2)OCO4)cc1	16	7
CNC(=O)[C@@H]1C[C@@H](N)CN1C(=O)c1c(C)nc2ccc(Cl)cn12	12	5
O=c1[nH]cc(S(=O)(=O)Nc2ccccc2F)c(=O)[nH]1	-12	-18
CCN(CC(=O)NC1CCS(=O)(=O)C1)C(=O)Cn1cnc2sc(C)c(C)c2c1=O (centres undefined)	-1	3
CC1=NN(c2ccccc2)C(=O)/C1=C/c1ccc(-c2ccc(Br)cc2)o1	-5	-14
Cn1c(N)nc(=O)c2nccnc21	2	1
CC(C)CC(=O)N1CCN(c2ccc(-n3cccn3)nn2)CC1	8	5
Cc1ccc2c(c1)NC(CN=C(N)N)CC2 (centres undefined)	2	38
COCCn1c(SC(C)C(=O)NC(C)CCc2ccccc2)nc2sc(C)c(C)c2c1=O (centres undefined)	0	-2
Cc1ccc(Cl)cc1NC(=O)C(C)Oc1ccc(C(=O)O)cc1Br (centres undefined)	1	2
CCOc1ccc(NC2CCN(c3ccccc3F)C2=O)cc1CO (centres undefined)	-1	17
O=C(NCCNC(=O)C1CCN(C(=O)c2cccc(Br)c2)CC1)c1ccccc1	-1	8
C=CCOC(CN1CCN(C(=O)c2cccc(Cl)c2)CC1)c1cccc(N2CCCC2)c1 (centres undefined)	-3	4
CCOC(=O)c1ccc(Nc2nnc(C)c(=O)[nH]2)cc1	2	-1
